High-throughput results from PubChem.
Cruzain Triton = qHTS Assay for Promiscuous and Specific Inhibitors of Cruzain (with detergent); Potency, µM, for the others: max response, negative = inhibition, actives largely listed as inhibitors; AID 1478, 2009; actives 0.43% (n = 200,000); purified cruzain, Z-FR-AMC fluorescence, 0.01% Triton; Cruzipain (Trypanosoma cruzi), P25779; active means well fitted curve in the direction sought with a large enough effect; inconclusive means small, poorly fitted or top-dose-only effect, or another doubt; inactive means no such curve, though single readings can be large; an effect the other way counts as inactive or inconclusive;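 further: plate controls were neutral wells for no effect and buffer without enzyme for full effect; nearly all actives have a fitted effect of over 40% in size; top concentration of the series not given in the record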
Target sequence (P25779 123-467 limits assumed): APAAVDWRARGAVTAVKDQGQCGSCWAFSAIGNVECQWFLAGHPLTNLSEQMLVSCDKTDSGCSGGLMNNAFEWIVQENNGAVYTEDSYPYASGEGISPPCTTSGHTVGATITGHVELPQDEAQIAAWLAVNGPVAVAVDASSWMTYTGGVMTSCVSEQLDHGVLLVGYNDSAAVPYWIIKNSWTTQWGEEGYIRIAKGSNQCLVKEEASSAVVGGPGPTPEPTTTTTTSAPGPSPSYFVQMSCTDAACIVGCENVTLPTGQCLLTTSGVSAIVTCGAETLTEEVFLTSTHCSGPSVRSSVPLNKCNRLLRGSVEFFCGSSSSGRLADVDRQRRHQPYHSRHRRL
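Steps: dispense cruzain (1.5 nM final) in acetate buffer pH 5.5 with DTT and 0.01% Triton X-100; pin-transfer compounds; incubate 15 min RT; add Z-FR-AMC (2 uM final); read fluorescence every 30 s, using the 60 s intensity change.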
Lassa entry inh = qHTS for Inhibitors of binding or entry into cells for Lassa Virus; actives 1.2% (n = 300,000); Potency, µM (top dose mostly 37.9 µM), inactives show at the highest dose activity change, negative = inhibition, actives largely listed as inhibitors; AID 540256, 2011; Lassa virus pseudotype entry inhibition, cell reporter; control for the full effect not named in the record; active means well fitted inhibition curve with a large enough effect; inconclusive means small, poorly fitted or top-dose-only effect, or effect the other way; inactive means flat fitted curve, though single readings scatter; tested in HEK293 cells; further: on the % scale 0 is the no-effect control and ±100 the full control effect; nearly all actives have a fitted effect of over 50% in size; luciferase read-out
MARV entry inh = qHTS for inhibitors of binding or entry into cells for Marburg Virus; Potency, µM (doses to about 37.8 µM), inactives show at the top dose activity change, negative = inhibition, most hits filed as inhibitors; actives 1.8% (n = 300,000); Marburg virus pseudotyped entry inhibition, cell reporter; control for the full effect not named in the record; about a third of the inactives were read at about 46 µM; active = well fitted inhibition curve with a large enough effect; inconclusive = small, poorly fitted or top-dose-only effect, or effect the other way; inactive = flat fitted curve, though single readings scatter; tested in HEK293 cells; about a fifth of its hits are not listed in these tables; further: on the % scale 0 is the no-effect control and ±100 the full control effect; luciferase read-out
2A StopGo = High Throughput Screening for Foot and Mouth Disease Virus Antivirals | human cells with a luciferase reporter of 2A StopGo recoding; control for the full effect not named in the record | Potency, µM (titrated, usually from 57.9 µM), for inactives: at the top dose signal change, negative = less light | actives 1.2% (n = 410,000) | AID 1159524, 2015; active = well fitted falling curve with a large enough effect; inconclusive = small, poorly fitted or top-dose-only effect; inactive = no such curve, though single readings can be large or run the other way; tested in HEK293T cells; further: on the % scale 0 is the no-effect control and ±100 the full control effect; nearly all actives have a fitted effect of over 45% in size; luciferase light after 4 h
SARS PLpro yeast = qHTS of Yeast-based Assay for SARS-CoV PLP | S. cerevisiae expressing SARS-CoV PLpro, growth rescue; control for the full effect not named in the record | Potency, µM (top dose mostly 32.9 µM), for the others: top-dose activity, positive = growth rescue | actives 0.19% (n = 330,000); further: 0% is about no effect; nearly all actives have a fitted effect of over 55% in size; growth read by luminescence after 48 h
RE007 growth inh = qHTS Assay for Inhibitors of the HIV-1 protein Vpr; S. pombe RE007 Vpr strain, BacTiter-Glo ATP luminescence, 24 h; control for the full effect not named in the record; actives 0.21% (n = 360,000); Potency, µM (highest dose often 92.2 µM), for the others: at the highest dose activity change, negative = less growth; active = well fitted falling curve with a large enough effect; inconclusive = small, poorly fitted or top-dose-only effect; inactive = no such curve, though single readings can be large or run the other way;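 further: on the % scale 0 is the no-effect control and ±100 the full control effect; nearly all actives have a fitted effect of over 50% in size; the assay follows cell death caused by Vpr and the record does not say whether a fall means rescue or toxicity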
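Fission yeast RE007 carrying one integrated HIV-1 vpr copy, seeded at OD 0.01 in PMG+AL medium with 23 nL pinned compound. Grown 24 h at 30 degrees; viability read by BacTiter-Glo luminescence after 5 min.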
Cruzain noTriton = qHTS Assay for Promiscuous and Specific Inhibitors of Cruzain (without detergent) | purified cruzain, Z-FR-AMC fluorescence, no detergent | Potency, µM, inactives show max response, negative = inhibition, most hits filed as inhibitors | actives 2.3% (n = 200,000) | AID 1476, 2009; active means well fitted curve in the direction sought with a large enough effect; inconclusive means small, poorly fitted or top-dose-only effect, or another doubt; inactive means no such curve, though single readings can be large; an effect the other way counts as inactive or inconclusive;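 further: plate controls were enzyme without inhibitor for no effect and buffer without enzyme for full effect; nearly all actives have a fitted effect of over 40% in size; top concentration of the series not given in the record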
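Detergent-free condition (0.00005% Triton X-100) in acetate buffer pH 5.5 with DTT. 1.5 nM enzyme and compound were pre-mixed 15 min, then 2 uM Z-FR-AMC substrate added; reaction progress from fluorescence change between first and third reads (60 s).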
NS1 inh = qHTS Assay for Inhibitors of Influenza NS1 Protein Function. S. cerevisiae slowed by influenza A NS1, growth recovery by OD600. Potency, µM (top dose mostly 46.1 µM), without a hit: top-dose activity, positive = more growth. actives 0.4% (n = 270,000); further: actives are rising curves; nearly all actives have a fitted effect of over 50% in size
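In this qHTS, NS1 from influenza A is expressed in budding yeast, where it slows growth. Cells are switched from glucose to 2% galactose medium (pH 6.0, -URA), treated with compound, and growth recovery is read at OD600.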
The depositor's hits bear a star; ? = inconclusive; . = not tested or not shown; & = joins results of further samples; [ ] = remark or other dose. Unless noted, the call rests on the fitted dose curve; in most records, active means well fitted rising curve with a large enough effect; inconclusive means small, poorly fitted or top-dose-only effect; inactive means no such curve, though single readings can be large or run the other way. Potency means the concentration at half of the fitted maximal effect.

The first 2 records, to show the layout:
SMILES	Cruzain Triton	Lassa entry inh	MARV entry inh	2A StopGo	SARS PLpro yeast	RE007 growth inh	Cruzain noTriton	NS1 inh
COc1ccc(NC(=O)Nc2nnc(-c3ccco3)s2)cc1	.	.	.	15%	1%	10%	.	-1%
Cc1cc(C)c(S(=O)(=O)N2CCCOC2CNC(=O)C(=O)NCc2ccco2)c(C)c1 (stereo not given)	0.9%	8%	?	0%	2%	-18%	-4%	-4%

Results, from the start:
SMILES	Cruzain Triton	Lassa entry inh	MARV entry inh	2A StopGo	SARS PLpro yeast	RE007 growth inh	Cruzain noTriton	NS1 inh
COc1ccc(NC(=O)Nc2nnc(-c3ccco3)s2)cc1	.	.	.	15%	1%	10%	.	-1%
Cc1cc(C)c(S(=O)(=O)N2CCCOC2CNC(=O)C(=O)NCc2ccco2)c(C)c1 (stereo not given)	0.9%	8%	?	0%	2%	-18%	-4%	-4%
Cc1noc(C)c1CSc1nnc(C)c(=O)[nH]1	0.7%	-16%	-14%	1%	-5%	3%	3%	-2%&3%
CCOC(=O)c1ccc(S(=O)(=O)NC2CCCCCCC2)n1C	-0.4%	-2%	-2%	10%	2%	-2%	-2%	-14%
c1ccc(CN2CN=C(Nc3nc4ccccc4s3)NC2)cc1	?	2%	2%	20%	-5%	27%	-8%	-3%
Cc1noc2ncnc(NCc3cccc(Cl)c3)c12	-5.0%	3%[46.1 µM]	.	?	.	.	-7%	.
CCN(c1cc(C)cc(C)c1)S(=O)(=O)c1nnc(NC(=O)c2cccs2)s1	-3.7%	?	.	4%	.	.	-23%	.
O=C(NCCCN1CCN(c2ccccc2F)CC1)c1cc2c(Cl)nc3ccccc3c2s1	-0.2%	29%[46.1 µM]	5%[46.1 µM]	?	.	.	5%	.
N#CCCNc1ccc(OCCC#N)cc1	-0.6%	1%	?	-19%	-3%	1%	18%	6%
Cc1ccc(-n2c(CSc3nc(C)cc(C)n3)nnc2SCC(=O)N2CCCC2)cc1	4.4%	-23%	0%	10%	-6%	-2%	2%	-1%
Cc1ccc(C(=O)Nc2ccc(C(=O)OCc3cc(=O)n4nc(C5CC5)sc4n3)cc2)cc1	0.3%	?	.	-15%	.	.	-10%	.
CCOC(=O)CN1C(=O)CSc2ccc(S(=O)(=O)N3CCOCC3)cc21	.	.	.	-16%	27%	-2%	.	-3%
NS(=O)(=O)c1ccc(NC(=S)NCc2cccc(Cl)c2)cc1	-7.4%	-4%	7%	8%	-2%	4%	-7%	-1%
Cc1ccc(-n2nnnc2SCC(=O)N2CCc3ccccc3C2)cc1	-9.6%	?	29%	0%	-95%	-14%	-17%	-68%
C/C(=N\NC(=O)C1CCCC1)c1ccc(Cl)c(Cl)c1	.	.	.	15%	2%	-1%	.	10%
CNC(=O)C1CCN(Cc2cc3ccccc3n2Cc2cccc(C)c2)CC1	0.2%	-25%[46.1 µM]	.	-29%	.	.	8%	.
CCOC(=O)N1CCN(C(=O)C2CCC(=O)N2C(C)C)CC1 (stereo not given)	3.0%	0%	17%	8%	-12%	-2%	3%	1%
OC(c1ccncc1)(c1ccc(F)cc1)c1ccc(F)cc1	-2.1%	?	27%	-21%	-3%	25%	-1%	3%
CC(=O)c1ccc(S(=O)(=O)Nc2ccc(-c3ccc(N4CCCCC4)nn3)cc2)cc1	-3.0%	4%[46.1 µM]	.	51%[activator]	.	.	?	.
CN(c1ccccc1)S(=O)(=O)c1ccc(NC(=O)c2nc(S(C)(=O)=O)ncc2Cl)cc1	-6.5%	?	?	11µM*	.	12%	?	-16%
COc1cccc(C(=O)CSc2nc3ccccc3n2CC(=O)N(C(C)C)C(C)C)c1	3.2%	-1%	11%	-21%	1%	-16%	-20%	16%
O=C(NC1(C(F)(F)F)NC(=O)N(Cc2ccccc2)C1=O)c1cccs1 (stereo not given)	.	2%	-9%	-27%	.	0%	.	.
CCc1nc(CN2CCN(c3cc(C(F)(F)F)ccn3)CC2)c(C)[nH]1	.	.	.	-36%	-6%	-12%	.	1%
COc1ccc(OC)c(S(=O)(=O)N/N=C\c2c[nH]c3ccccc23)c1	.	?	-13%	40%[activator]	11%	3%	.	-1%
COc1ccc(S(=O)(=O)N2CCC(C(=O)NCC(c3cccs3)N(C)C)CC2)cc1 (stereo not given)	1.2%	11%	12%	-9%	0%	-13%	-2%	-3%
COc1cccc(COc2nc3c(c(=O)n(C)c(=O)n3C)n2C)c1	3.9%	3%	12%&12%	0%	0%	13%	4%	1%
Cc1ccc(C)c(N2CCN(C(=O)Cn3cnc4nc5c(cc4c3=O)CCCC5)CC2)c1	-0.9%	?	.	?	.	.	-9%	.
CCc1ccccc1NC(=S)N1CCN(c2ccccc2F)CC1	.	-21%	0%	-1%	?	5%	.	30%
O=C(O)c1ccccc1C(=O)NCC(O)COc1ccc(Cl)cc1 (stereo not given)	.	14%	30%[46.1 µM]	21%	0%	5%	.	-2%
Cc1c(N=C2NC(=O)C(CC(=O)Nc3ccccc3)S2)c(=O)n(-c2ccccc2)n1C (stereo not given)	-1.8%	-8%	7%&7%	-10%	-3%	-15%	-13%	?
COC(=O)c1ccc(OC(=O)CCc2cc(OC)c(OC)c(OC)c2)cc1	.	-2%[46.1 µM]	-1%[46.1 µM]	3%	2%	-6%	.	.
CC12COC3(C(=O)Nc4nccs4)CC1CCC32C (stereo not given)	2.8%	0%	28%	-15%	-3%	-16%	-1%	-4%
COc1ccc(CNC(=O)C2CC(c3ccc(C(F)(F)F)cc3)=NO2)cc1 (stereo not given)	.	.	.	-2%	2%	-3%	.	3%
CN1CCN(c2cc(N3CCCCCC3)c(F)cc2[N+](=O)[O-])CC1	-4.9%	?	?	?	-19%	7%	-7%	-5%
CC(C)(C)c1ccc2c(c1)N(CC(=O)NCCCN1CCN(c3ccccc3F)CC1)C(=O)CO2	-0.5%	-14%[46.1 µM]	.	-11%	.	.	-7%	.
O=C1c2nccnc2C(=O)N1c1ccc(F)cc1	.	1%	1%[46.1 µM]	20%	0%	15%	.	.
CC(=O)Nc1ccccc1-c1nc2ccc(C(=O)N3CCN(c4cccc(C)c4)C(C)C3)cc2[nH]c1=O (stereo not given)	-2.4%	.	.	?	5%	4%	?	-6%
Cc1nn(CC(=O)Nc2nnc(CC(=O)N3CCCC3)s2)c(=O)c2ccccc12	0.0%	-3%	-2%&-4%	9%	0%	1%	-1%	-4%
CCn1c(CSc2nc3ccccc3s2)nnc1SCC(=O)c1ccc2c(c1)OCCO2	-1.5%	?	-5%&-5%	0%	-4%	-4%	-12%	-5%
CCOCCOC(=O)C(C)Sc1n[nH]c(=O)[nH]c1=O (stereo not given)	1.4%	1%	-6%	0%	-5%	0%	12%	1%
CCN1C(=O)C2(C(C(=O)c3ccc(C)o3)=C(O)C(=O)N2CCCN(C)C)c2ccccc21 (stereo not given)	.	10%[46.1 µM]	-1%[46.1 µM]	3%	0%	0%	.	-5%
O=C(NCC(c1ccco1)N1CCCC1)c1ccc(Cl)c(S(=O)(=O)N2CCc3ccccc32)c1 (stereo not given)	.	?	11µM*	?	9%	20%	.	.
COc1ccccc1-c1c(C#N)c(N)nc2c1CCC2	.	7%	2%	14%	0%	4%	.	0%
CCCC(c1nnnn1CC(=O)OCC)N(Cc1cc2c(C)cc(C)cc2[nH]c1=O)C1CCCC1 (stereo not given)	-7.5%	-23%	-2%&4%	0%	-3%	19%	-6%	-1%
CCCCN(C)CCCNC(=O)C1(O)c2ccccc2NC(=O)N1c1ccc(Cl)cc1 (stereo not given)	.	.	.	-4%	1%	-1%	.	2%
CC(=O)Nc1ccc(Nc2c([N+](=O)[O-])c(=O)n(-c3ccccc3)c3ccccc23)cc1	.	.	8%[46.1 µM]	4%	4%	13%	.	8%
CCOc1ncccc1C(=O)OCC(=O)Nc1cc(C(C)(C)C)ccc1OC	.	-25%	?	-29%	1%	12%	.	.
NC(N)=N/N=C/c1ccccc1OC(F)F	.	12%	-15%[46.1 µM]	-13%	-5%	13%	.	.
COc1ccccc1CNC(=O)c1ccc2c(c1)N(Cc1cc(C)ccc1C)C(=O)c1ccccc1S2	0.1%	3%[46.1 µM]	.	9%	.	.	-3%	.
O=C(N/N=C\c1ccc(Sc2ccccn2)o1)c1cccc(Br)c1	-3.0%	6%	?	?	-9%	6%	2%	-11%
Cc1ccc(-c2nn(CC(=O)NCCN3CCOCC3)c(=O)c3ccccc23)cc1	1.0%	6%	19%	-21%	?	9%	10%	-2%
O=C1C=C(NC(=O)Nc2ccc(Cl)c(Cl)c2)CCC1	.	15%	15%[46.1 µM]	15%	-24%	5%	.	6%
CC1CCCC(NC(=O)c2ccc3c(c2)NC(=O)CS3)C1C (stereo not given)	.	.	.	11%	-18%	-2%	.	-53%
COc1cccc(CN(C)C(=O)Nc2cccc(C(F)(F)F)c2)c1OC	-4.1%	0%	?	-12%	16%	-2%	5%	-6%
COc1ccc(NC(=O)CSc2nc3ccccc3c(=O)n2CCC(=O)NC2CCCCC2)c(OC)c1	0.6%	9%[46.1 µM]	.	-1%	.	.	-4%	.
CCCNC(=O)C1CN(S(=O)(=O)c2ccc(C)cc2)c2ccccc2O1 (stereo not given)	.	?	-10%[46.1 µM]	20%	7%	-21%	.	13%
Cc1ccc(-c2nnc(NC(=O)CCS(=O)(=O)c3ccc(F)cc3)o2)c(C)c1	.	-22%	?	-4%	3%	3%	.	.
COc1ccc(NC(=O)C(NS(=O)(=O)c2cccc3nsnc23)C(C)C)cc1 (stereo not given)	0.3%	13%[46.1 µM]	-7%[46.1 µM]	11%	.	.	-4%	.
CCOc1ccc(-c2noc(CCC(=O)NC3CCCCC3)n2)cc1OC	.	?	5%[46.1 µM]	0%	11%	-7%	.	41%
